Rce1 inhib – inhibitors of yeast Ras-converting enzyme; actives 0.27% (n = 290,000); calls only; yeast membranes, quenched prenylated peptide cleavage fluorescence; AID 2563; Q03530;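 active = fall in fluorescence gain of 50% or more versus controls, with final raw signal at or below 3038400; inconclusive = same 50% fall but final raw signal above 3038400; inactive = fall in fluorescence gain under 50%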;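 note: plate controls were neutral control wells for no effect and wells lacking membranes for full effect; tested at 10 µM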
Target sequence (Q03530 whole entry, looked up): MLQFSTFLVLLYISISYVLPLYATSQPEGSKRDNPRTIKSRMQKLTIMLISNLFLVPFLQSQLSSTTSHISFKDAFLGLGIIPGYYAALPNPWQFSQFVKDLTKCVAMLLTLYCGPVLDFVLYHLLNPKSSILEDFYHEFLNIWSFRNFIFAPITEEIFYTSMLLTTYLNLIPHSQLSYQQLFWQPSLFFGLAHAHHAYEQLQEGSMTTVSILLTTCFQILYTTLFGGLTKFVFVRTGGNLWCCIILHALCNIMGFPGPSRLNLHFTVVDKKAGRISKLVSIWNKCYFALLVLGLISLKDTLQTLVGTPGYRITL
PABP polyA inh – blocks human PABP binding to poly(A) RNA; AID 2014; actives 1% (n = 290,000); P11940; inhibition, % at 35 µM; fluorescence polarization;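 active = 50% or more with normal probe brightness, or confirmed in later tests; inconclusive = above 50% with abnormal brightness, or retests that disagree; inactive = below 50% or failed in later tests; about a fifth of its hits are not listed in these tables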;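 note: calls also rest on retests at 20 µM and on dose response follow-up; controls were probe without protein and protein plus probe with vehicle; some compounds called inactive have numbers as strong as hits; many hits fall short of the cut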
Target sequence (P11940 whole entry, looked up): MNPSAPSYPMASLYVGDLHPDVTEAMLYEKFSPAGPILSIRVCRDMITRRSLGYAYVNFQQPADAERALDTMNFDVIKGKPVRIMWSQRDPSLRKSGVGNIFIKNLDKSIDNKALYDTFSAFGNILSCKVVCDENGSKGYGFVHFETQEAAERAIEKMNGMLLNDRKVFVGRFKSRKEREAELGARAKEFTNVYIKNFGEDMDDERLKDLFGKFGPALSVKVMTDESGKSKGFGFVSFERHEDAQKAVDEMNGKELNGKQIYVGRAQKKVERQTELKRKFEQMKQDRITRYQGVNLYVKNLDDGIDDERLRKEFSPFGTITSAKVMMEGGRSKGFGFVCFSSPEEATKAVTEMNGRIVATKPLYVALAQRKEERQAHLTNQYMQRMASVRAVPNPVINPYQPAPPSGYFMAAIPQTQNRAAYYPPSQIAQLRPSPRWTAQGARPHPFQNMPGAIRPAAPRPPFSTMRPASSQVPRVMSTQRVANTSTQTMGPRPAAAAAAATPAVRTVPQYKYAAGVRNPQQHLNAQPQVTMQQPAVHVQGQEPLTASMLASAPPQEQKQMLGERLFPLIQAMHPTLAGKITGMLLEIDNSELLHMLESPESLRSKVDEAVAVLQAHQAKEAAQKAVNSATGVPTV
MT1-MMP act inh – blocks activation of human MT1-MMP | HT1080 RFP-PRO-GFP cells, GFP/RFP ratio fluorescence, overnight; percent of plate control window, DMSO zero | GFP/RFP ratio change, % at 20 µM | actives 0.061% (n = 360,000) | AID 651647;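 active = GFP/RFP ratio change of at least 30% with cell ATP level not reduced by more than half and red fluorescence within 50% of control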; note: strong numbers were not always called active
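Compound: 20 µM single dose, 1% DMSO / System: HT1080 RFP-PRO-GFP cells / Controls: DMSO and RFP-L50D-GFP cell wells / Read-out basis: GFP/RFP fluorescence ratio / Schedule: overnight compound exposure at 37 °C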
CSC inhib – blocks cancer stem cells; cancer stem cell-like cells viability, luminescence; inhibition, % at 7.5 µM; actives 1.1% (n = 300,000);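 active = mean at 75% or more and at least half the replicates too; inconclusive = mean and replicates disagree; tested in HMLE shEcad cells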;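 note: 0% = median of negative and 100% = median of positive control wells; the first replicate is given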
Env fusion inh – HIV envelope-mediated fusion inhibition; HeLa-JRFL Env/CEM21 cell fusion, luciferase; inhibition, % at 12.3 µM; actives 1.1% (n = 360,000);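 active = mean replicate inhibition score of at least 50 and every replicate individually at or above 50; inconclusive = only one of the two criteria met; inactive = mean below 50 and not all replicates reaching 50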;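 note: 0% = plate neutral controls and 100% = maraviroc near 300 nM; one replicate is shown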
eIF4H FP inh – inhibitors of RNA binding by human eIF4H. Q15056. AID 2012. inhibition, % at 35 µM. eIF4H fluorescence polarization binding assay. actives 0.94% (n = 290,000);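 active = 50% or more with normal probe brightness, or confirmed in later tests; inconclusive = above 50% with abnormal brightness, or retests that disagree; inactive = below 50% or failed in later tests; about a fifth of its hits are not listed in these tables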;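 note: calls also rest on retests at 20 µM and on dose response follow-up; 0% = protein and probe with vehicle and 100% = probe without protein; strong numbers were not always called active; many hits fall short of the cut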
Yeast UUG start – yeast start codon fidelity modulation; actives 0.13% (n = 350,000); activity score, % at 18.7 µM; S. cerevisiae UUG-firefly luciferase reporter, luminescence/redox ratio;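 active = replicate mean at a twofold rise or more, about +100% in these data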;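 note: firefly luciferase made from a UUG start codon reports start codon fidelity; reporter light over untreated wells divided by growth signal over untreated wells; some hits fall short of that in this replicate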
eIF4H FP inh retest – also measured in eIF4H FP inh; calls as there; inhibition, %; compound at 20 µM; confirmation average;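 mean of two retest wells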
PABP polyA inh retest – second read-out of PABP polyA inh, no call of its own (marks repeat the call); inhibition, %; compound at 20 µM; confirmation repeats;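 mean of two retest wells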
MT1-MMP act inh RFP – second read-out of MT1-MMP act inh, no call of its own (marks repeat the call); RFP signal change, %; measured here: RFP expression control read;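 0 = vehicle wells; hits needed this value within 50% of zero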
* = called active by the depositor; i = inactive; ? = inconclusive; . = not tested or not shown.

Start of the listing, in advance (3 entries):
SMILES | Rce1 inhib | PABP polyA inh | MT1-MMP act inh | MT1-MMP act inh RFP | CSC inhib | Env fusion inh | eIF4H FP inh | Yeast UUG start | others
O=C(Cc1ccc(-c2ccccc2)cc1)Nc1ncccc1O | i | -6 | 6 | 5 | 1 | -94 | 10 | -22
O=C(c1cc(Cl)ccc1Cl)N1CCOCC1 | i | 13 | -2 | -1 | 4 | . | -6 | -1
CCCCCCCCOC(=O)C(NC(=O)CCC(=O)Nc1ccc(S(N)(=O)=O)cc1)C(O)c1ccccc1 (configuration not stated) | i | -3 | 4 | -8 | -4 | . | 4 | -39

Results, from the start:
SMILES | Rce1 inhib | PABP polyA inh | MT1-MMP act inh | MT1-MMP act inh RFP | CSC inhib | Env fusion inh | eIF4H FP inh | Yeast UUG start | others
O=C(Cc1ccc(-c2ccccc2)cc1)Nc1ncccc1O | i | -6 | 6 | 5 | 1 | -94 | 10 | -22
O=C(c1cc(Cl)ccc1Cl)N1CCOCC1 | i | 13 | -2 | -1 | 4 | . | -6 | -1
CCCCCCCCOC(=O)C(NC(=O)CCC(=O)Nc1ccc(S(N)(=O)=O)cc1)C(O)c1ccccc1 (configuration not stated) | i | -3 | 4 | -8 | -4 | . | 4 | -39
Cc1ccc(N=C2NC(=O)/C(=C\c3ccco3)S2)cc1 | i | -5 | 1 | 3 | -17 | . | 97 | -16 | eIF4H FP inh retest=-1;PABP polyA inh retest=-4
CC(=O)CCn1cnc([N+](=O)[O-])n1 | i | 4 | 13 | -4 | -1 | -5 | 3 | .
COc1ccc(NC(=O)C2CC(=O)N(c3cc(C)ccc3C)C2)cc1 (configuration not stated) | i | -4 | 1 | 5 | -13 | . | -13 | 2
CCOC(=O)c1c(NC(=O)CSc2nnc3c(Cl)cc(Cl)cn23)sc2c1CCC2 | i | 9 | 1 | -4 | -5 | -3 | -2 | -12
S=C(Nc1ccc(Br)cc1)Nc1ccc2c(c1)OCCO2 | i | -7 | 4 | -2 | 46 | -23 | -2 | -36
CCOP(=O)(OCC)C(NC(=O)Nc1ccc(C)cc1)C(N)=O (configuration not stated) | i | -5 | 1 | 5 | 3 | 3 | 14 | -9
CCCCN(C)CCNC(=O)C(NC(=O)C1CCC(C)CC1)C(C)C (configuration not stated) | i | 30 | 2 | -1 | -18 | 9 | 3 | .
OCCNCC(O)Cn1c2ccccc2c2ccccc21 (configuration not stated) | i | -3 | 0 | 3 | 18 | -27 | 0 | .
O=C(Nc1ccccc1F)Oc1cccc(OC(=O)Nc2ccccc2F)c1 | i | 5 | 1 | 0 | -3 | 0 | 10 | -9
O=c1c2ccccc2ncn1-c1ccc(Br)cc1[N+](=O)[O-] | i | 10 | 1 | -1 | -6 | -9 | 1 | -12
O=c1c2nccnc2[nH]c(=S)n1Cc1ccccc1Cl | i | 8 | 5 | 5 | -1 | -4 | -5 | .
Cn1c(-c2ccccc2)cnc1SCc1nc2ccccc2c(=O)[nH]1 | i | 6 | 4 | -5 | -6 | -47 | -11 | -31
CCN(CC(=O)Nc1c(F)cccc1F)C(=O)c1cc([N+](=O)[O-])ccc1N1CCOCC1 | i | . | 2 | 4 | -9 | -35 | . | .
O=C(CCNC(=O)OCC1c2ccccc2-c2ccccc21)NOCc1ccccc1 | . | . | -1 | 2 | . | 9 | . | -18
Cc1nc2cc(C(F)(F)F)ccc2n1C | i | -8 | 0 | 2 | -4 | 2 | 5 | .
Cc1c(Cl)cccc1S(=O)(=O)Nc1ccnn1C | i | 16 | 1 | 0 | -14 | 8 | 1 | .
CCC(C)N(C(=O)COc1ccc(Br)cc1C=O)C1CCS(=O)(=O)C1 (configuration not stated) | i | . | -1 | 2 | -6 | 8 | . | .
CC(=O)Nc1cccc(-c2ccnc3c2CC(C)(C(=O)Nc2cccc(OC(F)(F)F)c2)O3)c1 (configuration not stated) | . | . | -5 | -9 | . | 8 | . | -4
Cc1ccc(S(=O)(=O)N(C)C)cc1NC(=O)CCNC(=O)c1ccco1 | i | 5 | 0 | 5 | -1 | -12 | -10 | -4
CC(=O)NC(N(C#N)c1nc(Cl)nc(N(C)C)n1)C(Cl)(Cl)Cl (configuration not stated) | i | 7 | 2 | 1 | -11 | -8 | -6 | .
O=C1CCCN1Cc1ncnn1-c1ccccc1 | i | 3 | 2 | 5 | -11 | . | -2 | -14
CN(Cc1ccc(OC(F)F)cc1)C(=O)c1ccc(S(=O)(=O)N(C)c2ccccc2)cc1 | . | . | -7 | -12 | 0 | . | . | 1
O=C(NCCCn1ccnc1)c1sc2cccc(F)c2c1Cl | i | 0 | 7 | 0 | . | 13 | 8 | -3
Cc1c(NC(=O)c2ccc(Cl)s2)c(=O)n(-c2ccccc2)n1C | i | -2 | -5 | -4 | -16 | 5 | -5 | .
COc1ccc(Cl)cc1NC(=O)COC(=O)C1=NNC(=O)CC1 | . | . | -1 | -2 | 0 | -11 | . | .
CCn1c(CNC(=O)c2ccco2)nnc1SCC(=O)c1ccc(F)cc1 | i | -4 | 2 | 1 | . | 4 | -7 | -21
N#CC1=C(N)NC(=S)C(C(N)=O)C1c1ccc(Cl)cc1Cl (configuration not stated) | i | 6 | -3 | -11 | 0 | -7 | -3 | .
O=S(=O)(Cc1ccccc1)N1CCN(Cc2ccc(F)cc2Cl)CC1 | i | 4 | 3 | 0 | 6 | -7 | -3 | -8
COc1ccc2[nH]c3c(c2c1)CCN1C(=O)C(CC(=O)NCCc2ccccn2)C[C@H](C(=O)N(C(C)C)C(C)C)[C@@]31C (some centres not stated) | . | . | 7 | 3 | . | -12 | . | -1
O=C1NC(=S)S/C1=C\c1cc(Cl)cc(Cl)c1O | . | . | 15 | 60 | . | 12 | . | -26
COc1cccc(N(C(=O)Cn2nnc(-c3ccc(C)o3)n2)C(C(=O)NC(C)(C)C)c2cccs2)c1 (configuration not stated) | i | -15 | 4 | -5 | 6 | -136 | -12 | -13
Cc1cccc(N2CCN(S(=O)(=O)c3ccc4c(c3)C(C)(C)C(=O)N4C)CC2C)c1 (configuration not stated) | i | 6 | -3 | -6 | -13 | 12 | -4 | -4
CCC(=O)N1CCN(c2cc(C)ccc2C)CC1 | i | -1 | -3 | 1 | 8 | -15 | -3 | -16
COc1cccc(C2=NOC(C(=O)NCCCn3ccnc3)C2)c1 (configuration not stated) | . | 5 | 3 | 6 | -7 | 6 | 8 | -5
Cc1cc(=O)oc2cc(OCc3ccc(S(=O)(=O)N4CCOCC4)cc3)ccc12 | i | -2 | -1 | -5 | 5 | -18 | 2 | -9
Nc1nc2c(nnn2Cc2ccc(Cl)c(Cl)c2)c(=O)[nH]1 | . | . | 5 | -9 | . | 0 | . | -1
O=C(Nc1cccc(Cl)c1)c1ccc(F)c(S(=O)(=O)NCc2cccs2)c1 | i | 2 | -5 | -16 | 31 | 35 | -4 | 2
Cc1ccc2c(n1)CC(C)(C)C/C2=N\O | i | ? | -8 | -5 | -7 | 22 | ? | -7
Cc1ccc(C(=O)OCC(=O)Nc2cccc(S(=O)(=O)N3CCCCC3)c2)s1 | . | . | 4 | 4 | . | 27 | . | 9
O=C(NC1CCCCC1)C(c1ccc(F)cc1)N(C(=O)c1cccs1)c1ccc2c(c1)OCO2 (configuration not stated) | i | 2 | 3 | -2 | -2 | . | 4 | -5
CC(C)(C)c1cc(NC(=O)CSc2nnc(NCc3ccccc3)s2)n(-c2ccccc2)n1 | i | -9 | -1 | -13 | -7 | 19 | 0 | .
CCOC(=O)[C@H]1[C@H]2COc3ccc(OC)cc3[C@@H]2N2C(=O)CN(CC3CCCO3)C(=O)[C@@]12C (some centres not stated) | . | . | 1 | 1 | -24 | 15 | . | -8
COc1ccc(-n2c(=S)[nH]c3cc(C(=O)NCc4ccco4)ccc3c2=O)c(OC)c1 | i | -7 | -3 | -3 | 7 | -50 | 2 | -4
Cc1ccc(NS(=O)(=O)c2c(C)nc3sccn3c2=O)c(C)c1 | i | -5 | 4 | -2 | -3 | 3 | -1 | -12
Oc1c(CN2CCN(c3ccccn3)CC2)cc(Cl)c2cccnc12 | i | 21 | -8 | -22 | ? | . | 14 | .
CC(C)C(NC(=O)/C(=C/c1ccco1)NC(=O)c1ccc(Br)o1)C(=O)O (configuration not stated) | i | 35 | -4 | 3 | 10 | 0 | 34 | -1
O=C(O)CCCCCNC(=O)Nc1ccc2c(c1)OCCO2 | i | -3 | 2 | 3 | -3 | . | 6 | -14

Later entries
SMILES | Rce1 inhib | PABP polyA inh | MT1-MMP act inh | MT1-MMP act inh RFP | CSC inhib | Env fusion inh | eIF4H FP inh | Yeast UUG start | others
FC(F)(F)c1nc2ccccc2n2c(-c3c(Cl)cccc3Cl)nnc12 | i | -2 | 6 | -1 | 5 | . | 2 | -3
CCc1nc2ccc(C(=O)NCCOc3ccc(OC)cc3)cn2c1N(C)Cc1ccc(OC)cc1 | . | . | -4 | -12 | . | -27 | . | -21
O=C(O)/C=C\C(=O)Nc1ccccc1C(=O)N1CCC(O)(c2ccc(Cl)cc2)CC1 | . | . | -1 | -2 | . | -2 | . | 3
CN(c1nc(-c2ccccc2)cs1)C1CCS(=O)(=O)C1 (configuration not stated) | i | -6 | 2 | 1 | 6 | . | -4 | -30
O=C(O)C1C2CCC(C2)C1C(=O)NCCc1cccc(Cl)c1 (configuration not stated) | i | -9 | -2 | -1 | -12 | -56 | -10 | -1
CN(Cc1nccs1)C(=O)C1CCC(=O)N(Cc2ccccc2F)C1 (configuration not stated) | i | -3 | 0 | 1 | -7 | 7 | 2 | -14
CC(C)c1ccc(-c2nn[nH]n2)cc1 | i | -4 | -3 | 1 | -7 | -55 | -10 | -16
NC(=O)C1CCN(CC(=O)Nc2nc(-c3ccccc3)cs2)CC1 | i | -9 | 0 | -1 | -15 | 2 | -8 | -17
CCOc1ncccc1C(=O)Nc1ccc(S(=O)(=O)N2CC(C)CC(C)C2)cc1 (configuration not stated) | . | . | -7 | -6 | 0 | 10 | . | -10
Brc1ccc(-c2nnc(-c3cccc(Br)c3)o2)cc1 | i | -9 | 2 | -1 | 15 | . | -10 | .
COCCN(CCOC)S(=O)(=O)c1ccc(Cl)nc1 | i | 10 | 3 | 2 | 1 | -50 | -5 | -13
O=C(Cc1ccc(F)cc1)Nc1ccc2[nH]ncc2c1 | i | 6 | 0 | -3 | -3 | -6 | 2 | -19
Cc1cc(C)c(C(=O)NCC(=O)c2ccccc2)c(C)c1 | . | . | 4 | -4 | 10 | -17 | . | .
CC1CCC(NC(=O)c2nn(C)c3c2CSc2ccccc2-3)CC1 (configuration not stated) | i | -4 | 8 | -1 | -8 | -3 | -3 | -14
O=C(NCc1ccc2c(c1)OCO2)c1cc(S(=O)(=O)N2CCCCC2)ccc1F | i | -2 | 1 | -9 | 17 | -59 | 0 | -1
CN1C2C=C3C(C#N)=C(N)C(C#N)(C#N)[C@@H](c4ccc(Cl)cc4)[C@@H]3C1CC2 (some centres not stated) | i | 16 | -3 | 6 | -4 | . | 17 | -13
Cn1c(=O)oc2cc(S(=O)(=O)N3CCC(C(=O)N4CC=C(c5ccccc5)CC4)CC3)ccc21 | . | -3 | 7 | -7 | . | 30 | -2 | -10

Compounds from the list above that contain a tert-butyl group:
SMILES | Rce1 inhib | PABP polyA inh | MT1-MMP act inh | MT1-MMP act inh RFP | CSC inhib | Env fusion inh | eIF4H FP inh | Yeast UUG start | others
COc1cccc(N(C(=O)Cn2nnc(-c3ccc(C)o3)n2)C(C(=O)NC(C)(C)C)c2cccs2)c1 (configuration not stated) | i | -15 | 4 | -5 | 6 | -136 | -12 | -13
CC(C)(C)c1cc(NC(=O)CSc2nnc(NCc3ccccc3)s2)n(-c2ccccc2)n1 | i | -9 | -1 | -13 | -7 | 19 | 0 | .
